# Screening results as filed in PubChem.
# Vaccinia inh – blocks a specific stage of Vaccinia orthopoxvirus infection | Vaccinia-infected cells, mCherry/Venus stage reporter fluorescence; hits give low values; some inactives read as strong as hits | activity change (mCherry), % (test concentration not listed) | 89,000 compounds, 0.01% hits | AID 1053133;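 active = mCherry past -33% and 40 or more points under the early reporter, replicates agreeing; inconclusive = past -33% without that gap or agreement; tested in A549 cells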;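 note: scaled between vehicle wells and reference inhibitor wells; 23 nL library stock went into each well; one replicate is shown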
# Vaccinia inh Venus – further read-out of Vaccinia inh, marked with its call; activity change (Venus), %; measured here: Venus reporter, other viral stage;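 negative = less Venus signal; first of two replicates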
# * = called active by the depositor; ? = inconclusive; nt = no result given. Not all compounds are listed. The share of hits here may be higher or lower than overall.
SMILES,Vaccinia inh,Vaccinia inh Venus
CC(C)NC(=O)N(C)C[C@H]1Oc2ccc(NS(=O)(=O)c3ccc(Cl)cc3)cc2CC(=O)N([C@@H](C)CO)C[C@@H]1C,9.9,8.3
CO[C@@H](CN(C)C(=O)c1cnccn1)[C@H](C)CN([C@H](C)CO)S(=O)(=O)c1ccccc1,17.1,12.8
COc1ccc(S(=O)(=O)N(C)C[C@@H]2OCCCC[C@H](C)Oc3ccc(NS(=O)(=O)c4cccs4)cc3C(=O)N([C@H](C)CO)C[C@@H]2C)cc1,?,nt
COc1ccc(S(=O)(=O)Nc2ccc3c(c2)C(=O)N([C@H](C)CO)C[C@H](C)[C@@H](CN(C)C(=O)Nc2c(C)noc2C)OCCCC[C@@H](C)O3)cc1,28.5,14.6
C[C@@H]1CN([C@H](C)CO)C(=O)c2cc(C#Cc3ccccc3F)cnc2O[C@@H]1CN(C)C,-19.5,-7.8
CCS(=O)(=O)N1CC2(C1)CN(S(=O)(=O)c1cccc(OC)c1)[C@@H](CO)c1[nH]c3cc(OC)ccc3c12,-16.3,-19.3
Cc1ccc(S(=O)(=O)N(C)C[C@H]2Oc3c(NC(=O)Nc4cccc5ccccc45)cccc3C(=O)N([C@H](C)CO)C[C@H]2C)cc1,27.9,15.5
C[C@@H]1CN([C@H](C)CO)C(=O)Cc2cc(NS(=O)(=O)c3cn(C)cn3)ccc2O[C@@H]1CN(C)Cc1ccc(C(F)(F)F)cc1,-14.7,-10.1
C[C@H](O)C#Cc1cnc2c(c1)C(=O)N([C@@H](C)CO)C[C@@H](C)[C@H](CN(C)Cc1cccc(C(=O)O)c1)O2,11.6,5.4
C[C@H](CO)N1C[C@H](C)[C@H](CN(C)S(=O)(=O)c2ccccc2)OCCCC[C@H](C)Oc2ccc(NS(C)(=O)=O)cc2C1=O,25.0,14.0
Cc1noc(C)c1NC(=O)Nc1ccc2c(c1)CC(=O)N([C@@H](C)CO)C[C@@H](C)[C@H](CN(C)CC1CC1)O2,13.0,-10.5
CNC[C@@H]1Oc2ccc(NC(=O)Nc3ccccc3)cc2CC(=O)N([C@@H](C)CO)C[C@H]1C,11.4,1.5
C[C@H](CO)N1C[C@H](C)[C@@H](CN(C)S(=O)(=O)c2cccs2)OCc2cn(nn2)CCCC1=O,3.7,8.7
C[C@@H]1CN([C@@H](C)CO)C(=O)c2cc(C#Cc3cccc(F)c3)cnc2O[C@@H]1CN(C)CC1CCCC1,?,nt
C[C@@H]1CCCCO[C@@H](CN(C)S(=O)(=O)c2cn(C)cn2)[C@@H](C)CN([C@@H](C)CO)C(=O)c2cc(NC(=O)C3CCCCC3)ccc2O1,20.7,13.5
COc1ccc(NC(=O)Nc2ccc3c(c2)CC(=O)N([C@@H](C)CO)C[C@H](C)[C@H](CN(C)S(=O)(=O)c2cn(C)cn2)O3)cc1,19.0,21.3
C[C@@H]1CN([C@@H](C)CO)C(=O)c2cc(NC(=O)C3CCCCC3)ccc2O[C@@H](C)CCCCO[C@H]1CN(C)Cc1ccncc1,-18.4,-17.1
Cc1ccc(S(=O)(=O)Nc2ccc3c(c2)C(=O)N([C@H](C)CO)C[C@H](C)[C@@H](CN(C)S(C)(=O)=O)OCCCC[C@@H](C)O3)cc1,17.3,6.2
CS(=O)(=O)Nc1ccc2c(c1)[C@H]1C[C@@H](CC(=O)N3CCOCC3)O[C@@H](CO)[C@H]1O2,11.0,11.4
C[C@@H]1CCCCO[C@@H](CN(C)Cc2ccccc2)[C@H](C)CN([C@@H](C)CO)C(=O)c2cc(NC(=O)Nc3ccc(F)cc3)ccc2O1,-24.8,-18.8
CC(C)NC(=O)N(C)C[C@@H]1Oc2c(NC(=O)c3cnccn3)cccc2C(=O)N([C@H](C)CO)C[C@@H]1C,0.2,-8.2
C[C@H](CO)N1C[C@H](C)[C@H](CN(C)S(=O)(=O)c2ccc(F)cc2)Oc2ccc(NS(=O)(=O)c3cn(C)cn3)cc2CC1=O,8.2,0.7
CC(C)NC(=O)Nc1ccc2c(c1)C(=O)N([C@H](C)CO)C[C@H](C)[C@@H](CN(C)C(=O)Cc1ccccc1)OCCCC[C@H](C)O2,-9.3,-17.7
C[C@@H]1CN([C@@H](C)CO)C(=O)Cc2cc(NS(=O)(=O)c3cccs3)ccc2O[C@@H]1CN(C)CC1CC1,3.1,6.3
CCCNC(=O)N(C)C[C@H]1Oc2cc(C#CC3CC3)ccc2S(=O)(=O)N([C@H](C)CO)C[C@H]1C,-27.6,-27.5
SMILES,Vaccinia inh,Vaccinia inh Venus
COc1ccc(C#Cc2cccc(-c3nc(C(=O)Nc4ccc(-c5ccccc5)cc4)cc4c3[C@@H](CCO)N(S(=O)C(C)(C)C)C4)c2)cc1OC (stereo partly specified),2.6,27.8
COCCOC(=O)N1C(=O)[C@@]2(c3cc(C#Cc4ccc(OC)cc4)ccc31)[C@H](c1ccccc1OCCO)N1[C@H](c3ccccc3)[C@H](c3ccccc3)OC(=O)[C@H]1[C@@H]2C(=O)NC[C@H](O)c1ccccc1,-7.9,-1.2
COc1ccc2c3c(n(C)c2c1)[C@H](CO)N(Cc1ccccc1)CC31CN(C(=O)c2ccccc2F)C1,-32.7,-21.9
C[C@H]1CN([C@@H](C)CO)C(=O)c2cc(C#CCc3ccccc3)cnc2O[C@H]1CN(C)C(=O)C1CCCCC1,6.5,9.2
C[C@H]1CN([C@@H](C)CO)C(=O)Cc2cc(NS(=O)(=O)c3ccc(Cl)cc3)ccc2O[C@@H]1CN(C)Cc1ccc(Oc2ccccc2)cc1,-32.3,-26.9
CCCNC(=O)C[C@@H]1CC[C@@H]2[C@H](COc3ccc(NS(=O)(=O)c4ccccc4C)cc3C(=O)N2C)O1,-0.4,-9.9
C[C@H](CO)N1C[C@H](C)[C@H](CN(C)Cc2ccc(C(F)(F)F)cc2)OCCCC[C@H](C)Oc2ccc(NC(=O)Nc3ccc4c(c3)OCO4)cc2C1=O,-8.8,-10.1
C[C@H]1CN([C@@H](C)CO)C(=O)CCCn2nncc2CO[C@@H]1CN(C)Cc1ccc2c(c1)OCCN2C,-4.4,-2.6
CC(C)NC(=O)N1CCCCN2[C@@H](CO)[C@@H](c3ccc(C#CC4CC4)cc3)[C@@H]2C1,-29.9,-22.1
COc1ccc(NC(=O)N(C)C[C@H]2OCCCC[C@@H](C)Oc3ccc(NS(=O)(=O)c4ccc(C)cc4)cc3C(=O)N([C@@H](C)CO)C[C@H]2C)cc1,-4.6,0.0
O=C(N[C@@H]1CC[C@@H](CCNS(=O)(=O)c2ccc(Cl)cc2)O[C@@H]1CO)c1cnccn1,3.4,5.3
C[C@H]1CCCCO[C@H](CN(C)Cc2ccc3c(c2)OCO3)[C@@H](C)CN([C@@H](C)CO)C(=O)c2cc(NC(=O)NC3CCCCC3)ccc2O1,?,nt
COC(=O)[C@H]1[C@H](CO)[C@H]2Cn3c(ccc(C4=CCCCC4)c3=O)[C@H]2N1CCC(F)(F)F,13.8,4.6
CCCC#Cc1ccc2c(c1)O[C@H](CN(C)S(=O)(=O)c1cccc(F)c1)[C@H](C)CN([C@@H](C)CO)S2(=O)=O,?,nt
O=C(c1ccc(F)cc1)N1CC(=O)N2[C@@H](CO)[C@@H](c3ccc(C#CCC4CCCC4)cc3)[C@@H]2C1,?,nt
CCCC#Cc1cnc2c(c1)C(=O)N([C@@H](C)CO)C[C@H](C)[C@@H](CN(C)C(=O)C1CCC1)O2,-12.0,-5.2
C[C@@H]1CN([C@H](C)CO)C(=O)c2cc(NS(=O)(=O)c3ccc(F)cc3)ccc2O[C@@H](C)CCCCO[C@H]1CN(C)CC1CCCCC1,?,nt
C/C=C/c1ccc([C@H]2[C@@H](C#N)N(C(=O)c3cccnc3)[C@@H]2CO)cc1,-15.8,-8.8
C[C@H]1CCCCO[C@@H](CN(C)S(=O)(=O)c2cn(C)cn2)[C@@H](C)CN([C@@H](C)CO)C(=O)c2cc(NS(=O)(=O)c3cccs3)ccc2O1,28.1,4.4
COc1ccccc1CNC(=O)C[C@H]1CC[C@H]2[C@H](COc3ccc(NS(=O)(=O)c4ccc(C)cc4)cc3C(=O)N2C)O1,-18.7,-4.1
O=C(CCN1CCCCC1)NCC[C@H]1CC[C@H](NC(=O)C2CCCCC2)[C@@H](CO)O1,0.8,1.3
CCCC#Cc1cnc2c(c1)C(=O)N([C@H](C)CO)C[C@@H](C)[C@H](CN(C)C(=O)Nc1ccccc1F)O2,-2.0,-0.3
O=C(NC1CCCCC1)N[C@H]1CC[C@@H](CC(=O)N2CCOCC2)O[C@@H]1CO,9.2,7.6
CCNC(=O)C[C@H]1CC[C@H]2[C@H](COc3ccc(NC(=O)Nc4ccccc4Cl)cc3C(=O)N2C)O1,7.3,10.4
CCCC(=O)Nc1ccc2c(c1)OC[C@H](C)N(Cc1ccccc1)C[C@@H](C)[C@H](OC)CN(C)C2=O,7.1,1.2
SMILES,Vaccinia inh,Vaccinia inh Venus
C[C@@H]1CN([C@H](C)CO)C(=O)c2cc(NC(=O)Nc3ccc(C(F)(F)F)cc3)ccc2O[C@H]1CN(C)Cc1ccc(-c2ccccc2)cc1,?,nt
C/C=C/c1ccc([C@@H]2[C@@H](CN(CC(C)C)C(C)=O)N(C(C)=O)[C@H]2CO)cc1,-7.7,8.6
CCCc1cn([C@H]2C[C@@H]3O[C@@H](CO)CC[C@@H]3O[C@@H]2CCc2ccc(-c3ccc(OC)cc3)cc2)nn1,?,nt
CC(C)C[C@H]1COCc2cn(nn2)CC[C@@H](Cc2ccccc2)C(=O)N1,9.3,2.1
COc1ccc(NC(=O)N2CC3(C2)CN(C(=O)C2CCC2)[C@H](CO)c2c3c3ccc(OC)cc3n2C)cc1,-9.4,-5.2
COc1cccc(S(=O)(=O)Nc2ccc3c(c2)OC[C@@H](C)NC[C@@H](C)[C@@H](OC)CN(C)C3=O)c1,1.6,-2.9
C[C@H](CO)N1C[C@H](C)[C@@H](CN(C)C(=O)CN(C)C)Oc2ncc(C#C[C@@H](C)O)cc2C1=O,22.6,13.5
COC(=O)C[C@@H]1CC[C@H]2[C@@H](COc3ccc(NC(=O)C4CCOCC4)cc3C(=O)N2C)O1,-2.7,6.5
O=C(CC1CC1)N1[C@H](CO)[C@@H](c2ccccc2)C12CN(Cc1ccncc1)C2,5.4,6.0
O=C(N[C@H]1CC[C@H](CCNS(=O)(=O)c2ccccc2)O[C@H]1CO)c1cccnc1,-0.3,4.0
O=C(Nc1ccc2c(c1)[C@H]1C[C@@H](CC(=O)N3CCCCC3)O[C@@H](CO)[C@H]1O2)C1CCOCC1,-1.2,6.4
COc1ccc(S(=O)(=O)N(C)C[C@H]2Oc3ccc(NC(=O)CCN4CCOCC4)cc3CC(=O)N([C@@H](C)CO)C[C@@H]2C)cc1,11.6,6.1
COc1ccc2c3c([nH]c2c1)[C@H](CO)N(C(=O)NC1CCCC1)CC31CN(S(C)(=O)=O)C1,13.2,13.4
COCC(=O)N(C[C@H]1N[C@H](CO)[C@@H]1c1ccc(-c2cncnc2)cc1)C(C)C,-6.8,-1.8
CCC(=O)N(C)C[C@H]1Oc2ncc(-c3cccc(OC)c3)cc2C(=O)N([C@@H](C)CO)C[C@@H]1C,22.2,0.1
O=C(C[C@@H]1C=C[C@@H](NS(=O)(=O)c2ccccc2)[C@H](CO)O1)N1CCC(Cc2ccccc2)CC1,-29.8,-19.2
CO[C@H]1CN(C)C(=O)c2cc(NC(C)=O)ccc2OC[C@@H](C)N(C(=O)CN(C)C)C[C@H]1C,8.7,0.2
CN(C)C(=O)c1ccc(-c2ccc([C@H]3[C@@H](CO)N4C(=O)CN(C(=O)C5CCC5)C[C@@H]34)cc2)cc1,-9.3,-6.1
O=C(N[C@@H]1CC[C@@H](CC(=O)N2CCc3ccccc3C2)O[C@@H]1CO)C1CC1,3.4,4.3
CO[C@@H]1CN(C)C(=O)c2cc(NS(=O)(=O)c3ccc(Cl)cc3)ccc2OC[C@@H](C)N(C)C[C@H]1C,-15.7,-19.1
C[C@H](CO)N1C[C@H](C)[C@H](CN(C)Cc2ccc(-c3ccccc3)cc2)Oc2c(NC(=O)Nc3ccccc3)cccc2C1=O,-27.7,-26.8
CCCN(C)C[C@@H]1OCCCC[C@H](C)Oc2ccc(NC(=O)CCCN(C)C)cc2C(=O)N([C@H](C)CO)C[C@@H]1C,2.4,0.6
C[C@H]1CN([C@@H](C)CO)S(=O)(=O)c2ccc(C#Cc3ccccc3)cc2O[C@H]1CN(C)C(=O)CN(C)C,?,nt
N#C[C@@H]1[C@H](c2ccccc2C2=CCCCC2)[C@@H](CO)N1C(=O)c1cccc(F)c1,-21.5,-13.5
Cc1noc(C)c1NC(=O)N[C@@H]1C=C[C@H](CC(=O)Nc2ccccc2)O[C@H]1CO,-0.1,2.3
C[C@H](CO)N1C[C@H](C)[C@@H](CN(C)S(C)(=O)=O)Oc2ccc(NC(=O)Nc3ccc(F)cc3)cc2C1=O,1.0,4.3
O=C(C[C@@H]1CC[C@@H]2[C@H](COC[C@H](O)CN2S(=O)(=O)c2ccccc2F)O1)NCc1ccccc1F,-2.5,-0.6

# Three consecutive records already listed:
SMILES,Vaccinia inh,Vaccinia inh Venus
O=C(CC1CC1)N1[C@H](CO)[C@@H](c2ccccc2)C12CN(Cc1ccncc1)C2,5.4,6.0
O=C(N[C@H]1CC[C@H](CCNS(=O)(=O)c2ccccc2)O[C@H]1CO)c1cccnc1,-0.3,4.0
O=C(Nc1ccc2c(c1)[C@H]1C[C@@H](CC(=O)N3CCCCC3)O[C@@H](CO)[C@H]1O2)C1CCOCC1,-1.2,6.4

# 2 records drawn at random from the list so far, as already listed:
SMILES,Vaccinia inh,Vaccinia inh Venus
COc1ccc2c3c([nH]c2c1)[C@H](CO)N(C(=O)NC1CCCC1)CC31CN(S(C)(=O)=O)C1,13.2,13.4
CO[C@H]1CN(C)C(=O)c2cc(NC(C)=O)ccc2OC[C@@H](C)N(C(=O)CN(C)C)C[C@H]1C,8.7,0.2
